# Compound activity from PubChem.
# Bead autofluor: compound fluorescence in toxin protease inhibitor counterscreen | compound autofluorescence counterscreen, microsphere flow cytometry; hits give high values | fluorescence intensity (test concentration not listed) | hit rate 3.1% among 360,000;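 active = at least 3 SD above the mean of all compounds, about 16000 in these data; inconclusive = too few beads counted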;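 note: 100 nL of 1 mM stock went into each well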
# PrP UTR inh: suppresses PrP 5' UTR mRNA reporter expression | inhibition, % (concentration not given with the values) | cell-based PrP 5' UTR mRNA reporter, plate reader | AID 488862 | hit rate 0.35% among 340,000;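 active = every replicate at 50% or more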;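 note: 0 = median of the neutral control wells; tested in H4 reporter cells; numbers are from one replicate; inactives centre near -14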
# BJeLR lethal: BJeLR cell viability loss. BJeLR (HRASV12) viability, CellTiter-Glo ATP luminescence, 48 h; reference of the scale not given here. inhibition, % (test concentration not listed). hit rate 0.17% among 300,000;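 active = replicate mean above 50%; inconclusive = above 50% but judged a plate artefact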;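 note: 50 nL library stock added to about 25 µL; numbers are from one replicate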
# ugtP null kill: growth inhibition of S. aureus ugtP deletion strain. S. aureus RN4220 ugtP deletion, OD600 growth, 16 h; some inactives read as strong as hits. growth inhibition, % (test concentration not listed). hit rate 0.54% among 330,000;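 active = z-score under -3 and OD600 up to 0.15 on both plates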;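 note: plate controls were untreated wells for no effect and antibiotic for full effect; wells of about 80 µL received 100 nL stock; the first replicate is given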
# RN4220 kill: S. aureus RN4220 growth inhibition. AID 1259311. OD600, 16 h. hit rate 0.33% among 330,000. inhibition, % (no concentration beside the values);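 active = z-score of -3 or lower and OD600 up to 0.18 on both plates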;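 note: plate controls were untreated cells for no effect and reference antibiotic for full effect; stock transfer was 100 nL into about 80 µL; one replicate is shown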
# Mtb hypoxia inh: Mtb hypoxia fluorescent reporter inhibition. M. tuberculosis hypoxia-regulated fluorescent reporter, fluorescence. fluorescence inhibition, % (concentration not given with the values). hit rate 0.1% among 300,000. AID 1159583;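 active = 35 to 45% if threefold the growth effect, above 45% if 1.5-fold the growth effect; inactive = the rest, general growth blockers included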;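 note: wells of about 50 µL received 100 nL stock; 0% = vehicle wells and 100% = reference inhibitor wells; whole bacteria with a GFP reporter of the hypoxia response; strong numbers were not always called active; many hits fall short of the cut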
# Mtb hypoxia inh growth: further read-out of Mtb hypoxia inh, marked with its call; growth inhibition, %; measured here: M. tuberculosis growth (absorbance);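 0% = vehicle and 100% = reference antibiotic; read after six days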
# Numbers without * were called inactive; ? = inconclusive; . = not tested or not shown.
# The first three records (preview)
mol	Bead autofluor	PrP UTR inh	BJeLR lethal	ugtP null kill	RN4220 kill	Mtb hypoxia inh	Mtb hypoxia inh growth
c1ccc(N2CC[N+]3(CCCC3)CC2)nc1	4002	-34	4	1	1.8	-1	-2
CCOC(=O)c1c(C)c(C(=O)NCc2cccnc2)c(C)n1C	10938	-11	11	-12	-5.5	5	12
C=CCn1c(-c2ccccc2)c[nH]c1=S	3929	-84	-7	-5	1.3	4	-6

# Main list, from the first entry:
mol	Bead autofluor	PrP UTR inh	BJeLR lethal	ugtP null kill	RN4220 kill	Mtb hypoxia inh	Mtb hypoxia inh growth
c1ccc(N2CC[N+]3(CCCC3)CC2)nc1	4002	-34	4	1	1.8	-1	-2
CCOC(=O)c1c(C)c(C(=O)NCc2cccnc2)c(C)n1C	10938	-11	11	-12	-5.5	5	12
C=CCn1c(-c2ccccc2)c[nH]c1=S	3929	-84	-7	-5	1.3	4	-6
COc1ccc(CCNC(=O)C2CC2)cc1OC	8892	13	-6	2	2.0	-1	0
Cc1sc2ncnc(SCC#N)c2c1C	9376	-3	-13	-7	3.7	2	3
CCOC(C(=O)OCC(O)CN(CC)CC)(c1ccccc1)c1ccccc1 (configuration not stated)	4130	-17	5	3	-0.6	.	.
COc1ccc(CCNC(=O)CS(=O)(=O)Cc2nc(-c3ccc(C)cc3)oc2C)cc1OC	6146	-20	-2	.	.	.	.
COc1cc(/C=C/C(=O)N2CCN(C)CC2)cc(S(=O)(=O)N2CCc3ccccc32)c1OC	3679	10	10	11	3.7	11	17
O=S(=O)(Nc1nc2cc3c(cc2nc1Cl)OCCO3)c1ccccc1	3962	-24	4	5	11	-1	12
C=CCn1c(=NC(=O)c2ccccc2[N+](=O)[O-])sc2cc(S(C)(=O)=O)ccc21	2052	-15	-6	-5	1.7	8	9
CCCCn1c(=O)[nH]c(=O)c2c(C(=O)OCC)cc(-c3ccc(OC(F)F)cc3)nc21	4606	-44	0	2	13	-4	3
CCOC(=O)C1CCN(CC(=O)N2CCc3ccccc32)CC1	5121	-8	9	4	1.1	4	-4
Cc1sc2nc[nH]c(=O)c2c1-c1ccc(F)cc1	3245	-19	-14	-7	1.3	5	12
COc1ccc(NC(=O)c2c(C)noc2C(C)C)cc1S(=O)(=O)N1CCCCC1	3770	-18	.	4	-0.5	-2	1
CC(=O)c1cnc(-c2ccccn2)s1	3475	-11	10	8	6.2	5	2
COc1cccc(NC(=O)CSc2nnc(Cc3ccc(C)cc3)c(=O)n2N)c1	?	-12	-2	6	-3.8	2	16
O=C(Nc1ccn(Cc2ccccc2)n1)c1cccc(Cn2cc([N+](=O)[O-])cn2)c1	2466	-23	-4	0	-3.1	-6	6
O=C(c1ccccc1F)N1CCN(c2ccc([N+](=O)[O-])cc2-n2cccc2)CC1	4130	-23	-8	21	-4.3	-3	-1
Cc1ccc(N/C(=C\C(=O)c2ccccc2)C(=O)O)cc1	4406	-11	-25	-4	0.3	-5	4
COc1ccc2c(c1)cc(C(O)c1ccccn1)n2S(=O)(=O)c1ccccc1 (configuration not stated)	11247	-19	3	0	14	12	7
Cc1cc([N+](=O)[O-])c(NCCCCCCO)c([N+](=O)[O-])c1	4144	-20	15	-7	4.0	-4	8
O=C1CN(C(=O)c2cc(F)cc(F)c2)c2ccccc2N1	4395	-18	2	1	0.6	17	0
Cc1cc(C(=O)Nc2ccccc2)oc(=O)c1	4343	-43	1	5	4.3	11	6
Cc1ccnc(NS(=O)(=O)c2ccc(NC(=O)/C=C/c3cccs3)cc2)n1	2135	-3	-4	.	.	.	.
O=C(C1CCN(S(=O)(=O)c2cccs2)CC1)N1CCCC(C(F)(F)F)C1 (configuration not stated)	.	-16	-7	9	5.1	3	-24
Clc1ccccc1-c1nnc2sc(C3COc4ccccc4O3)nn12 (configuration not stated)	8080	3	.	-8	9.8	0	1
CCc1cccc(C)c1NC(=O)CSc1nnc(-c2cc3cc(Br)ccc3o2)n1CC	.	-8	-3	23	5.2	9	2
CCN(c1ccccc1)S(=O)(=O)c1cc(OC)ccc1OC	22526*	-10	-10	-3	3.9	6	8
Cc1ccccc1CC1SC(N=C(N)N)=NC1=O (configuration not stated)	3304	-27	-8	16	2.5	12	-2
CCN1CCN(C(=O)CS(=O)Cc2nc(-c3cccc(C)c3)oc2C)CC1 (configuration not stated)	5968	-47	4	1	4.1	15	-1
COc1cccc(CC(NC(C)=O)C(=O)NC2CCN(C(=O)C3CCCCC3)CC2)c1OC (configuration not stated)	3003	-5	-6	3	3.0	4	-1
CCOC(=O)C1=C(C)N(C)C(=O)NC1c1ccccc1OC (configuration not stated)	3066	-18	2	2	11	15	-34
C(=C\c1ccccc1)/CSc1nnc(-c2ccncc2)n1Cc1ccco1	2992	-13	2	-4	-11	12	0
COC(=O)CSc1nc(NC(C)=O)nc(C)c1Br	2921	-23	-5	1	-3.9	8	12
Cc1cc(C2=NNC(=Nc3ccc(S(=O)(=O)N4CCOCC4)cc3)SC2)c(C)n1C	3478	-4	-15	9	6.4	-17	2
COc1cccc(CNC(=O)COC(=O)c2nn(C)c(=O)c3ccccc23)c1	3887	-15	.	2	4.4	9	9
Cc1ccc(S(=O)(=O)CC(=O)N(CCCN2CCOCC2)c2nc3c(F)cccc3s2)cc1	5475	-36	4	7	1.7	5	3
O=C(OCC(=O)N1CCC(Cc2ccccc2)CC1)c1cccnc1Cl	2962	-21	.	11	3.6	15	13
COc1cccc(C(=O)Nc2cc(C)nn2-c2ccccc2)c1OC	5927	-11	7	4	1.9	3	-2
Cc1noc(C)c1S(=O)(=O)N1CCN(Cc2ccc3c(c2)OCO3)CC1	6449	-7	-6	-10	2.1	.	.
S=C(NC1CCCCC1)NN1CCCCCC1	4056	-21	.	6	6.8	13	14
Cc1cccc2cc(CN(CC3CCCO3)C(c3nnnn3Cc3ccco3)C(C)C)c(=O)[nH]c12 (configuration not stated)	2548	-2	-3	-21	1.8	.	.
O=c1oc(CCCO)cc2ccc(Br)cc12	3939	45	.	4	6.9	-6	0
O=C(Nc1ccc(F)c([N+](=O)[O-])c1)c1cccs1	4391	-13	-3	9	-2.5	5	11
COc1ccc2[nH]c3c(c2c1)CCN1C(=O)C(CC(=O)NC/C=C(\C)CCC=C(C)C)C[C@H](C(=O)N2CCCCC2)[C@@]31C (some centres not stated)	.	.	.	-22	1.6	-23	-24
Cc1cc(C)c(S(=O)(=O)NNC(=O)C2CCN(Cc3ccccc3)CC2)c(C)c1	8692	-22	-10	-3	1.0	1	6
CSc1ccc(-c2sc(Nc3ccccc3)n[n+]2-c2ccccc2)cc1	3977	-11	3	.	.	.	.
O=C1N(C2CCCC2)C[C@@H]2C[C@@H](c3cn[nH]c3-c3ccc(Cl)cc3)N3CCC[C@@]123	2644	-17	9	0	1.2	-2	-4
O=[N+]([O-])c1cc(C=NN2CCCCC2)ccc1Cl	.	.	.	-3	5.5	14	8
COc1ccc(CC(=O)NC(C)(C)CC(C)=O)cc1OC	5726	-20	3	0	-1.1	.	.
O=S(=O)(c1ccc(Oc2ccc(S(=O)(=O)N(CCO)CCO)cc2)cc1)N(CCO)CCO	2257	-27	-4	4	1.0	-2	4
CC(=O)O[C@H]1CC[C@@]2(C)[C@H](C1)C(=O)C[C@H]1[C@@H]3CC[C@@H]4[C@@H](CN5C[C@@H](C)CC[C@H]5[C@@]4(C)O)[C@@H]3C[C@@H]12	3095	8	-2	0	1.6	-5	-5
CCN(Cc1ccncc1)C(=O)c1cc(Br)cc(Br)c1O	4082	-5	2	-1	18	0	-3
COc1ccc(CC2(CO)CCN(Cc3cnc(-c4ccccc4C)nc3)CC2)cc1	3725	4	2	1	4.1	5	-1
CCN1CCN(C(=O)Cc2coc3cc(C)cc(C)c23)CC1	5531	-15	3	-4	-2.2	.	.
CCN(CC)S(=O)(=O)c1ccc(OC(C)C)nc1	10297	-29	-9	8	5.9	6	3
Cc1ccc(S(=O)(=O)Cc2ccc(C(=O)NCCCN3CCN(C)CC3)o2)cc1	23094*	-37	3	2	3.1	0	14
O=C(CCNC(=O)c1ccc([N+](=O)[O-])cc1)NCc1ccco1	2975	-6	.	2	0.8	4	3
O=C(CSc1cn[nH]n1)Nc1nc2ccccc2s1	3025	-14	4	-2	5.3	9	-6
CCCCc1ccc(NC(=S)NCCCN2CCOCC2)cc1	2100	-48	4	-1	-0.1	1	10

# Carrying on.
mol	Bead autofluor	PrP UTR inh	BJeLR lethal	ugtP null kill	RN4220 kill	Mtb hypoxia inh	Mtb hypoxia inh growth
CCCC(=O)Nc1ccc(N2CCN(C(=O)CCC)CC2)cc1	3786	-24	16	-4	6.6	14	12
CN1CCSc2ccc(C(=O)Nc3cccc(F)c3)cc21	4941	-88	7	6	3.3	15	4
Cc1nc(N2CCN(C(=O)c3ccc(Cl)cc3)CC2)c(C#N)c2c1COC(C)(C)C2	4795	-6	-3	6	5.5	.	.
CCOC(=O)c1nc(C)c(C(C)=O)s1	3875	-11	-7	-1	6.6	7	10
COc1cc(C(=O)NC(CCSC)C(=O)OCC(=O)C(C)(C)C)cc(OC)c1OC (configuration not stated)	4315	-15	-10	14	2.1	-3	-4
O=c1[nH]c(CN2CCN(c3ccccc3)CC2)nc2scc(-c3ccccc3)c12	2209	-17	-2	0	0.5	11	8
CC(C(=O)Nc1ccc(S(=O)(=O)Nc2ncccn2)cc1)N1C(=O)c2ccccc2S1(=O)=O (configuration not stated)	4633	-18	5	3	1.5	4	5
Cc1ccc(C(=O)c2nc3c(n2O)CCCC3)cc1	2776	-4	7	5	1.5	.	.
O=S(=O)(c1ccccc1)c1nc(-c2ccco2)oc1N1CCOCC1	3190	7	-4	-3	2.5	-4	-4
COc1ccc(NC(=O)CSc2nnc(C3CCCCC3)n2-c2ccccc2)cc1	4350	-4	-1	11	5.9	18	12
C/C(=N\NC(=O)c1nnn(-c2nonc2N)c1COc1ccc(F)cc1)c1ccc(Cl)cc1	4518	-13	14	.	.	.	.
Cc1c(C)c2c(OCC(=O)NCCCO)cc3c(c2oc1=O)CCC(C)(C)O3	3706	-14	9	10	2.8	7	9
CC(=O)CC(c1ccccc1[N+](=O)[O-])c1c(O)c2ccccc2oc1=O (configuration not stated)	4419	-1	-3	2	3.7	1	12
COC(=O)c1ccccc1NC(=S)NC(C)=O	4112	-16	-5	7	0.5	2	7
Fc1cccc(NCc2cn3ccccc3n2)c1	8466	-107	-9	4	4.1	14	8
COc1cc(/C=C(\C#N)C(=O)Nc2ccccn2)ccc1O	3426	-8	-10	-4	1.7	-8	8
O=C(O)c1ccc(-c2nc(-c3ccccc3)c(-c3ccccc3)[nH]2)cc1	2389	-12	-3	14	3.1	3	14
C[C@H](CO)N1C[C@H](C)[C@@H](CN(C)C(=O)Nc2ccc3c(c2)OCO3)Oc2ccc(NC(=O)Cn3cnnn3)cc2C1=O	3980	-16	.	-1	4.6	-5	3
Cc1ccccc1NC(=O)C1CCCN(c2ncnc3onc(-c4ccc(F)cc4)c23)C1 (configuration not stated)	5582	-14	-3	-5	1.4	-7	-1
Cc1cccc(/C=C2\Sc3ccc(C(=O)NCC4CCCO4)cc3N(C)C2=O)c1 (configuration not stated)	4679	6	-7	-14	-1.4	-1	-4
CCc1ccc(OCC(=O)Nc2ccncc2)cc1	4428	-20	-1	3	2.9	9	1
CN(C)CCCNCCCNC(=O)C=NO	.	.	.	-1	3.4	10	5
CC1CCC(N2CCN(c3ncccn3)CC2)C1 (configuration not stated)	3419	12	2	4	3.5	3	6
CCCCn1c(S(=O)(=O)O)nc2ccccc21	10414	-15	2	4	5.8	5	7
O=C(C[n+]1ccc2ccccc2c1)c1cccc2ccccc12	3148	-29	1	-8	-1.6	7	8
c1ccc(C(c2ccccc2)c2ccncc2)cc1	3773	-10	.	4	-2.9	10	11
COc1ccccc1N1CCN(C2CCN(S(=O)(=O)c3ccc(C)cc3)CC2)CC1	.	-19	2	-3	2.0	-1	-5
